Screening data deposited in PubChem BioAssay by Johns Hopkins Ion Channel Center.
KCNQ2 enhance: potentiators of rat KCNQ2 potassium channel. O88943. CHO-K1 KCNQ2, FluxOR thallium flux fluorescence; hits give high values. B-score at 10 µM. hit rate 0.54% among 310,000. AID 2239;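 active = fluorescence ratio B-score at least 3 SD of library B-scores, with initial fluorescence B-score within 3 SD, cut at about 5.3 in these data; same plate scores as AID 2156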;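 also: B-score of peak minus minimum over baseline fluorescence ratio after K+ and Tl+ stimulus; positive B-score means potentiation of KCNQ2 with more thallium influx and brighter signal; only the inactives scoring about 0 or higher are listed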
Target sequence (O88943 whole entry, looked up): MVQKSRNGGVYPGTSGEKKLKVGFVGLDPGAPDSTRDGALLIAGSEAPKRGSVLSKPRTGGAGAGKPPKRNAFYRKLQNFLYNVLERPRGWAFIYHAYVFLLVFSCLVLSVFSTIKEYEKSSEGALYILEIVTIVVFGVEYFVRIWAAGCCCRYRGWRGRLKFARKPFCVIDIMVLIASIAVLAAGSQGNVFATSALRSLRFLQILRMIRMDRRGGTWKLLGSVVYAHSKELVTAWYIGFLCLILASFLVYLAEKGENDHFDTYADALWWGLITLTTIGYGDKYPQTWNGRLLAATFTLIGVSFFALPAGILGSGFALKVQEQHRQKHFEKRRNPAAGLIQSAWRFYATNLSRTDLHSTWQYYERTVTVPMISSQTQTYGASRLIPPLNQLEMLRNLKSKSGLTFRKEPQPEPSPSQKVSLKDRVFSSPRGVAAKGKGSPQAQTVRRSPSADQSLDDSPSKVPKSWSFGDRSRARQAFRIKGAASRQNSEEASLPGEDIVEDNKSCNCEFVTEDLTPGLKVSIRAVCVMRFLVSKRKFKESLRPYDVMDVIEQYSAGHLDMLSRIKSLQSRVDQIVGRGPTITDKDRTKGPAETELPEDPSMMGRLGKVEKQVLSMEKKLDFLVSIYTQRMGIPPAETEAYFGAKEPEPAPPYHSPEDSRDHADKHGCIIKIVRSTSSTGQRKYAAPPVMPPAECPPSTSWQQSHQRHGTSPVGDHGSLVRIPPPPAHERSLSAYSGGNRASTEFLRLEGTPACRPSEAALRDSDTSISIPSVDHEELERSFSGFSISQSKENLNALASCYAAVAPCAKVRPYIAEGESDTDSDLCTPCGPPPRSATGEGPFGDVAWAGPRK
KCNQ2 enhance baseline: also measured in KCNQ2 enhance; calls as there; B-score; compound at 10 µM; measured here: initial fluorescence intensity artifact check;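 brightness before thallium and not channel activity; 0 = typical well and far values either way flag optical interference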
Numbers without * were called inactive; . = no result given.

no.	KCNQ2 enhance	KCNQ2 enhance baseline	SMILES
1	1.6	0.05	O=C(CSc1nc(O)c(Cc2ccccc2)c(=O)[nH]1)Nc1nnc(SCc2ccccc2)s1
2	0.44	0.12	CC(C)CC(=O)NC(=S)Nc1cccc(NC(=O)c2ccccc2Cl)c1
3	1	-0.7	COc1cc(/C=C2\N=C(C)OC2=O)cc(OC)c1OC
4	0.37	-0.09	C=CCNc1nc(S(=O)Cc2ccc(C)cc2)nc2c1CCCC2 (configuration not stated)
5	0.37	0.38	COCCN(C(=O)CSc1n[nH]c(-c2ccccc2)n1)c1c(N)n(CC(C)C)c(=O)[nH]c1=O
6	2.6	-0.66	Cc1nc(NC(=O)c2cc3c(s2)CCCCC3)sc1C(=O)N(C)C
7	0.66	0.55	CCN(CCCNC(=O)CCC(=O)N1CCOc2ccccc21)Cc1ccccc1
8	2.2	0.93	CC1=NN(C(=O)c2ccc(Cn3nc(C)cc3C)o2)C(O)(C(F)(F)F)C1 (configuration not stated)
9	0.51	-1.1	CCOC(=O)N1CCN(C(c2ccc(Cl)cc2)c2sc3nc(C)nn3c2O)CC1 (configuration not stated)
10	2	2.7	CC1c2ccccc2N(NC(=O)Cc2ccccc2)C1C (configuration not stated)
11	1.5	0	N/C(=N\OC(=O)c1cc(Cl)ccc1Cl)c1ccncc1
12	1.5	-0.74	COCCCn1c(=N)c(C(=O)NCc2ccc3c(c2)OCO3)cc2c(=O)n3ccccc3nc21
13	0.02	0.98	Cc1cccc(NC(=O)Cc2c(F)cccc2Cl)n1
14	1	0.2	CCN(CC)c1nc2c(s1)C(=O)CC(C)(C)C2
15	0.87	-1.1	CCOC(=O)N1CCN(Cc2nc(N)nc(Nc3ccc(OCC)cc3)n2)CC1
16	0.86	0.11	Fc1ccc(NCc2cn3ccccc3n2)cc1
17	0.16	-1.8	O=C(COc1ccc2oc3c(c2c1)CCCC3)Nc1ccccn1
18	0.51	1.5	O=C(NCc1ccccn1)C1CCC(=O)N1C1CCCC1 (configuration not stated)
19	0.81	0.24	COCC(=O)Nc1nnc(-c2cccs2)s1
20	0.01	-1.2	Cc1cc(C)c(S(=O)(=O)N2CCOC2CNC(=O)C(=O)NCCN(C)C)c(C)c1 (configuration not stated)
21	0.71	-0.64	c1ccc(-n2nnnc2Cc2nnnn2-c2ccccc2)cc1
22	0.04	0.53	O=C(O)c1ccc(S(=O)(=O)N2CCSCC2)cc1
23	0.17	0.18	CCc1cccc(N(C(=O)c2csnn2)C(C(=O)NC2CCCCC2)c2ccncc2)c1 (configuration not stated)
24	4.2	-1.2	Nc1nc(Nc2cccc(C(F)(F)F)c2)nc(C(F)(F)F)n1
25	1.2	-0.47	N#Cc1ccccc1Cn1c(=O)n(Cc2ccc(C(=O)NCc3ccco3)cc2)c(=O)c2ccccc21
26	1.3	-1.3	Cc1cc(OCC(=O)Nc2ccc(CCO)cc2)c2c(C)c(C)c(=O)oc2c1
27	0.14	-1.4	O=[N+]([O-])c1ccc(N(CCO)Cc2ccccc2)c([N+](=O)[O-])c1
28	2.6	0.5	CC(OC(=O)C1CC(=O)N(Cc2ccccc2)C1)C(=O)Nc1ccccc1[N+](=O)[O-] (configuration not stated)
29	0.07	0.57	CCc1c(C)sc(NC(=O)CN2CCN(C(=O)c3ccco3)CC2)c1C(=O)OC
30	10*	0.94*	COc1ccc(CC(=O)Nc2ccccc2Oc2ccccc2)cc1

From no. 26 up to 29, as listed above:
no.	KCNQ2 enhance	KCNQ2 enhance baseline	SMILES
26	1.3	-1.3	Cc1cc(OCC(=O)Nc2ccc(CCO)cc2)c2c(C)c(C)c(=O)oc2c1
27	0.14	-1.4	O=[N+]([O-])c1ccc(N(CCO)Cc2ccccc2)c([N+](=O)[O-])c1
28	2.6	0.5	CC(OC(=O)C1CC(=O)N(Cc2ccccc2)C1)C(=O)Nc1ccccc1[N+](=O)[O-] (configuration not stated)
29	0.07	0.57	CCc1c(C)sc(NC(=O)CN2CCN(C(=O)c3ccco3)CC2)c1C(=O)OC

(cont.)
no.	KCNQ2 enhance	KCNQ2 enhance baseline	SMILES
31	0.39	1.3	Cc1ccccc1C(=O)c1cccn1CC(=O)NCc1ccc(F)cc1
32	0.58	-0.03	CC1CN(S(=O)(=O)c2ccccc2)CN1C(=O)N1CCOCC1 (configuration not stated)
33	0.67	0.93	CCOC(=O)c1ccc(Nc2cc(C)nc(-c3ccccc3)n2)cc1
34	0.78	-0.64	CC(C)CCNCC1OCc2ccccc2CO1
35	0.21	-1.6	CCN(CC)CCOC(=O)c1c(C)n(C)c2ccc(OC)cc12
36	0.24	1.5	N#CCC(=O)N1CCN(Cc2ccc3c(c2)OCO3)CC1
37	0.06	-0.48	COc1ccc(C)cc1NS(=O)(=O)c1ccc(NS(=O)(=O)c2ccc(NC(C)=O)cc2)cc1
38	0.65	3.1	COc1ccc(C2C3C=CCC(c4cccc(-c5ccc(C)cc5)c4)C3C(=O)N2Cc2ccccc2)cc1Cl (configuration not stated)
39	0.38	-0.19	Cc1cccc(N2C(=O)N3[C@H](c4ccc(Br)cc4)[C@@H]4C(=O)N(C(C)(C)C)C(=O)[C@@H]4[C@]3(C)C2=O)c1
40	0.98	0.06	Cn1c(=O)c2c(nc(Br)n2Cc2ccc3ccccc3c2)n(C)c1=O
41	0.12	-0.25	CCN(CC)C(=O)Cn1cnc2sc(C(=O)NCCCN3CCOCC3)c(C)c2c1=O
42	0.04	-0.29	CC1(C)CC(=O)C(C=NCCN2CCN(C(=S)Nc3ccccc3)CC2)=C(O)C1
43	0.26	0.02	CCOC(=O)c1ccc(S(=O)(=O)N2CCC(C(=O)OCC)CC2)cc1
44	0.39	-0.2	Cc1cc(C)c(C#N)c(N2CCOCC2)n1
45	-5.6	.	CCn1nc(C)c(C(=O)Nc2cc(Oc3cc(C)cc(C)c3)cc([N+](=O)[O-])c2)c1C
46	0.96	0.01	CS(=O)(=O)N1N=C(c2cccs2)CC1c1ccc(Cl)o1 (configuration not stated)
47	0.56	-0.98	Cc1nc2cc(Cl)ccc2c(=O)n1Cc1ccncc1
48	0.05	1.1	COc1ccc(N2C(=O)C3CC=C(Cl)CC3C2=O)cc1 (configuration not stated)
49	0.23	-1.2	O=C(COc1ccc(/C=N/NC(=O)c2cc3ccccc3o2)cc1Cl)Nc1ccccc1
50	0.9	-2.2	COc1ccc(C(=O)COC(=O)C(CCSC)NC(=O)COc2ccccc2)c(OC)c1 (configuration not stated)
51	0.37	-0.17	COC(=O)C(C)Sc1nc2c(c(-c3ccc(OC)cc3)c1C#N)-c1ccccc1C2=O (configuration not stated)
52	0.83	-0.3	CC(=O)c1ccc(N2C(=O)[C@@H]3C(C(=O)CCN4C(=O)c5ccccc5C4=O)=NN[C@@H]3C2=O)cc1
53	0.68	0.11	O=C(NCc1cccnc1)Nc1ccccc1C(F)(F)F
54	4.9	0.02	CC1(C)CC(=O)C(C(C2=C(O)CC(C)(C)CC2=O)c2ccc(O)c([N+](=O)[O-])c2)=C(O)C1
55	0.23	-0.66	O=C(O)c1ccc([N+](=O)[O-])c(CS(=O)(=O)c2ccccc2)c1
56	1.2	0.33	Cc1nc2c(sc3nc4c(cc32)COC(C)(C)C4)c(=O)n1Cc1ccccc1
57	0.39	0.03	Cc1ccc(C)n1-c1ccc(C(=O)N2CCC(C(N)=O)CC2)cc1
58	0.12	0	Cc1ccc(C(=O)NC(C)c2ccc(-n3ccnc3)cc2)cc1 (configuration not stated)
59	0.21	2.2	O=C(O)c1cn(-c2ccccc2)nc1-c1ccc(F)cc1
60	0.18	0.08	Cc1nc2ccccc2c2oc(C(=O)Nc3ccc(C(C)C)cc3)cc12
61	1.5	0.85	O=C(CCCc1cccs1)Nc1nc(-c2ccc(F)cc2)cs1
62	0.98	-0.62	O=C(Nc1cccc2ncccc12)C(Cl)(Cl)Cl
63	1.1	0.01	Cn1cc(CN2CCc3c([nH]c4ccccc34)C2C(C)(C)C)cn1 (configuration not stated)
64	0.92	0.13	Cc1ccccc1Nc1n[nH]c(C)c1[N+](=O)[O-]
65	0.49	-3.4	CCOC(=O)N1CCN(C(=S)Nc2cccc(C)c2C)CC1
66	1.7	0.92	OCCC1CN(Cc2ccccc2O)CCN1CCCc1ccccc1 (configuration not stated)
67	4.2	0.11	O=C(Nc1ccccc1F)C1CC1c1ccccc1 (configuration not stated)
68	0.93	0.05	Cc1nc(SCC(=O)Nc2cccc(Cl)c2)n[nH]1
69	0.82	-0.68	CC(C)(C)OC(=O)NCCC(=O)Oc1ccc2ccc(=O)oc2c1
70	0.29	1.3	CCc1ccc(C(=O)Nn2cnc3ccccc3c2=O)cc1
71	1.2	1.9	O=C(CCN1C(=O)[C@@H]2Cc3ccccc3CN2C1=O)N[C@H](Cc1ccccc1)C(=O)O
72	0.98	-0.41	CCN(CC)C(=O)Oc1nnc(SC(C)C)n1-c1ccc(Cl)c(Cl)c1
73	0.58	-1.1	COc1ccccc1NC(=O)Cn1nc(-c2ccc3c(c2)OCCO3)ccc1=O
74	0.15	0.81	O=C(CCN1C(=O)/C(=C/c2ccccc2Cl)SC1=S)NC1=NCCS1
75	0.29	-2.1	COCCn1c(CN2CCc3ccccc3C2)nc2c1c(=O)n(C)c(=O)n2C
76	0.32	-0.3	N=c1c2c(ncn1Cc1ccco1)Oc1c(ccc3ccccc13)C2c1ccccc1 (configuration not stated)
77	0.63	-1.2	CC1=CN2C(=N)/C(=C/c3ccco3)C(=O)N=C2S1
78	0.1	-1.5	Cc1ccc2cc(CN(CCN3CCCC3)C(=O)Nc3ccc(F)cc3)c(=O)[nH]c2c1C
79	0.04	2.1	Cc1nn(-c2ccc(C(=O)O)cc2)c(C)c1Oc1ccccc1O
80	0.3	-0.33	CC(Oc1ccccc1)C(=O)Nc1ccc(S(=O)(=O)N2CCOCC2)cc1 (configuration not stated)
81	2.3	0.04	Cc1ccc(C)c(N2N=C(C(=O)NCCN3C(=O)S/C(=C\c4cccnc4)C3=O)CCC2=O)c1
82	0.44	-0.33	Cc1cc(C(=O)N/N=C/C=C/c2cccc([N+](=O)[O-])c2)n[nH]1
83	0.31	-0.34	Cc1ccccc1OCc1nc2ccccc2c(=O)n1/N=C/c1cn[nH]c1-c1ccc(Br)cc1
84	0.52	-0.77	CSc1nsc(SCC(=O)Nc2ccc(C(C)=O)cc2)n1
85	0.08	-2	CCC(C)Oc1nc2c(c(=O)n(C)c(=O)n2C)n1C (configuration not stated)
86	0.7	-0.93	Cc1ccccc1CSCCNC(=O)c1ccc(Cl)c(S(=O)(=O)N2CCOCC2)c1
87	1.4	1.8	N#Cc1ccc(C(=O)NCCCSc2ccccc2)cc1
88	2.3	-0.45	O=S(=O)(c1ccc2c(c1)OCCO2)N1CCN(c2ncnc3sccc23)CC1
89	0.92	1.5	O=C(c1cnn(C(=O)c2cccc(S(=O)(=O)N3CCOCC3)c2)c1)c1cc(Cl)cc(Cl)c1O
90	0.47	0.67	COc1cc(CC(=O)Nc2ccc3nc(SC)sc3c2)cc(OC)c1OC

More entries:
no.	KCNQ2 enhance	KCNQ2 enhance baseline	SMILES
91	0.09	-1.3	CN(C)/C=C/C(=O)c1cnc2sccn2c1=O
92	2.2	-0.16	Cc1cccc(-n2ncc3c(N4CCC(C)CC4)ncnc32)c1
93	0.96	1.3	CCOC(=O)CCc1c(C)nc(SCCCn2c(=O)[nH]c3ccccc32)c(C#N)c1C
94	2.3	0.17	Cc1ccc(OC(C)C(=O)O)cc1C (configuration not stated)
95	0.74	0.74	Cc1ccc(OCC(=O)c2c(O)c3ccccc3oc2=O)cc1C
96	0.62	-0.51	COc1ccc(S(=O)(=O)NC2CC(C)(C)NC(C)(C)C2)cc1
97	0.94	-1.8	O=C(N/N=C/c1ccc(OC(F)F)cc1OC(F)F)c1cccc(S(=O)(=O)N2CCOCC2)c1
98	0.36	0.06	Cc1ccc(OCC(=O)Nc2ccc3c(c2)nc(CCN2CCCCC2)n3C)cc1
99	0.09	-0.66	COC(=O)N/N=C/c1cn(Cc2ccc(Cl)cc2Cl)c2ccccc12
100	1.1	-1	COC(=O)[C@]1(CC(C)C)N[C@H](c2ccc(-c3ccc4c(c3)OCO4)cc2)[C@@H]2C(=O)N(C)C(=O)[C@@H]21
101	0.73	0.51	O=C(NN1CCOCC1)c1cc(S(=O)(=O)Nc2cccc(C(F)(F)F)c2)ccc1Cl
102	1.3	1.8	CC(=O)NC1CCN(CC(=O)Nc2cccc([N+](=O)[O-])c2)CC1
103	0.2	1.7	CNC(=O)c1ccc(-c2nc(-c3ccccc3)cs2)cc1
104	2.5	-0.58	Cc1cc(NC(=O)Nc2ccc(F)c(Cl)c2)no1
105	0.02	2.9	Oc1ccc(-c2n[nH]c(=S)n2-c2ccc3c(c2)OCCO3)cc1
106	0.14	-0.05	O=C(c1ccc2c(c1)OCCO2)C1CCN(C(=O)c2ccc(F)cc2)CC1
107	1.4	-0.09	CCCN1CCN(S(=O)(=O)c2c(C)[nH]c(C)c2C(=O)N2CCCCC2)CC1
108	0.01	1.1	Cc1cccc(OCC(=O)Nc2ccc(C(=O)NCc3cccnc3)cc2)c1
109	0.4	-0.05	N#Cc1ccccc1NC(=S)NC(=O)C1CCC1
110	0.04	2.5	CCC(C)(C)NC(=O)c1ccc2c(c1)OCCO2

Random excerpt: five compounds from above.
no.	KCNQ2 enhance	KCNQ2 enhance baseline	SMILES
108	0.01	1.1	Cc1cccc(OCC(=O)Nc2ccc(C(=O)NCc3cccnc3)cc2)c1
110	0.04	2.5	CCC(C)(C)NC(=O)c1ccc2c(c1)OCCO2
107	1.4	-0.09	CCCN1CCN(S(=O)(=O)c2c(C)[nH]c(C)c2C(=O)N2CCCCC2)CC1
109	0.4	-0.05	N#Cc1ccccc1NC(=S)NC(=O)C1CCC1
106	0.14	-0.05	O=C(c1ccc2c(c1)OCCO2)C1CCN(C(=O)c2ccc(F)cc2)CC1

These rows are one share of the data (hit frequency here may not be typical).
